PINK1 expr mod = modulators of PINK1 expression | PINK1 immunofluorescence, high-content cytometry, 24 h | Potency, µM (series often up to 76.6 µM), for inactives: top-dose activation (PINK1 increase), usual class: activators | hit rate 0.2% among 410,000 | AID 624263; active = well fitted activation curve with a large enough effect; inconclusive = small, poorly fitted or top-dose-only effect; inactive = flat fitted curve, though single readings scatter; cell line not stated here;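 note: potency is the fitted concentration of half-maximal effect; % of control where 0% means no effect; nearly all actives have a fitted effect of over 65% in size; a mitochondrial uncoupler was the plate control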
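PINK1 protein, normally rapidly degraded, was detected by immunofluorescence after 24 hour compound treatment of a stable cell line. Titration data (5 concentrations) came from laser-scanning cytometry, with CCCP-treated wells as controls.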
TRPML1 agonist = activates the human TRPML1 channel; Q9GZU1; TRPML1-expressing cells, Ca2+ dye fluorescence, FDSS; host cell line not named in the record; reference of the full effect not given here; activation, % (concentration not given with the values); hit rate 0.12% among 410,000; AID 624414; in the data active = activation above about 50%; inconclusive = about 30% to 50%; inactive = below about 30%; note: 0% is about no effect; the text of the record puts the active cut at 80%
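Agonist activity was taken from a 110 s kinetic Ca2+ dye read on the FDSS after pinning compounds onto TRPML1-DL cells. The cells were seeded at 1,500/well with Tet inducer, incubated about 16 h, then dye-loaded at room temperature.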
D2 PAM = positive allosteric modulators of human D2 dopamine receptor. potentiation, % (test concentration not listed). hit rate 0.23% among 360,000. P14416. DiscoveRx D2 beta-arrestin cells, luminescence, 90 min; 100% = 57 uM dopamine signal; active = potentiation of 50% or more; inconclusive = 30% to 50%; inactive = 30% or less;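 note: compound concentration not given in the record; tested on top of an EC20 dose of dopamine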
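D2 cells co-treated with compound plus 50 nM dopamine (EC20) for 90 min at 37 deg C to detect potentiation. Beta-arrestin recruitment was read as enzyme-fragment luminescence after 1 h at ambient temperature. Full response was set by 57 uM dopamine.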
Six1-Eya2 blk = inhibitors of human Six1/Eya2 interaction. hit rate 0.56% among 360,000. Q15475+O00167. AlphaScreen GST-Six1/His-Eya2 binding, biochemical; stronger effect = lower value; control for the full effect not named in the record. AID 651725. activity change, % (concentration not given with the values); in the data active = activity change below about -65%; inconclusive = about -30% to -65%; inactive = above about -30%; note: % is set by controls: 0 for no effect and ±100 for the full control effect
Target sequence (O00167 whole entry, looked up): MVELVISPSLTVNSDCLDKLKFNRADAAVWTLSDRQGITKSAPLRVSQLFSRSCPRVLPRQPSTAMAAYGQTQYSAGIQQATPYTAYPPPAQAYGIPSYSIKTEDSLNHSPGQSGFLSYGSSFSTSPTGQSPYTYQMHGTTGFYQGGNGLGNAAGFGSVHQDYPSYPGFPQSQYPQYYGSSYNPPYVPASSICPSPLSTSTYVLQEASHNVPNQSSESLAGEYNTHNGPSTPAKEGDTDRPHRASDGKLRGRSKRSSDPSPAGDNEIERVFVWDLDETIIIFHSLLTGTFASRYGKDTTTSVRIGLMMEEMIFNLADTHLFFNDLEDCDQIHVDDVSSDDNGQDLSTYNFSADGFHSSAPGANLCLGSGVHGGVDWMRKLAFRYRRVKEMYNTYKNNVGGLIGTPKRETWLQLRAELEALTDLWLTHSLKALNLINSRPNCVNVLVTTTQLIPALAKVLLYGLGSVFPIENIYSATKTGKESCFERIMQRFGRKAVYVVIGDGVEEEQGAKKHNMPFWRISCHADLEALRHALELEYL
Target sequence (Q15475 whole entry, looked up): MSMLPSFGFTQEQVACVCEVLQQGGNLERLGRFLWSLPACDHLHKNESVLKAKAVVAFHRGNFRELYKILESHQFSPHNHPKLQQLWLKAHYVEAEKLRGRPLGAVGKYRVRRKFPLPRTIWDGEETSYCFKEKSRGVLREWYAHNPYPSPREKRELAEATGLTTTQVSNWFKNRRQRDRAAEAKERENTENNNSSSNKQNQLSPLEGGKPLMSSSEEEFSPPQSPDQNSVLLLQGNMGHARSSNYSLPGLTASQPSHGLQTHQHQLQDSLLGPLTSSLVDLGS
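GST-Six1 + His-Eya2 (5X stock: 250/500 nM); Tris pH 8.0, 300 mM NaCl, 0.05% BSA, 0.02% Tween 20; GSH donor/Ni acceptor beads; 1 h 37 °C dark; AlphaScreen readout.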
TRPML1 inh = inhibitors of human TRPML1 channel; AID 624415; Q9GZU1; hit rate 0.02% among 390,000; activity change, negative = inhibition, % (test concentration not listed); TRPML1-inducible cells, Ca2+ dye fluorescence, FDSS; stronger effect = lower value; inhibition of EC80 agonist-evoked calcium signal; in the data active means activity change below about -50%; inconclusive means about -30% to -50%; inactive means above about -30%;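 note: stimulus is agonist 54-4 at its EC80 concentration; % is set by controls: 0 for no effect and ±100 for the full control effect; compound concentration not given in the record; the text of the record puts the active cut at -80%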
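TRPML1-DL cells, Tet-induced overnight (~16 h, 37 °C) at 1,500 cells/well, were loaded with Ca8 no-wash dye plus quencher for 45-90 min at room temperature. Compounds were pinned during FDSS kinetic reading; agonist 54-4 at EC80 (4 uM final) then added.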
D2 agonist = activates the human D2 dopamine receptor | P14416 | DiscoveRx PathHunter D2 beta-arrestin, luminescence, 90 min; 100% = 57 uM dopamine signal | activation, % (no concentration beside the values) | hit rate 0.084% among 360,000 | AID 624465; in the data active = activation above about 40%; inconclusive = about 15% to 40%; inactive = below about 15%; note: compound concentration not given in the record; the text of the record calls up to 30% inactive
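Agonist mode: compounds alone added to overnight-plated D2 PathHunter cells for 90 min at 37 C, with 57 uM final dopamine (EC100) defining full response. Beta-arrestin recruitment detected by chemiluminescent reagent, read after 1 h at ambient temperature.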
Numbers without * were called inactive; ? = inconclusive; nt = not tested or not shown; & = joins results of further samples; [ ] = another dose, or the depositor's remark.

Every second line gives: D2 PAM, D2 agonist, Six1-Eya2 blk, TRPML1 inh, PINK1 expr mod, TRPML1 agonist
> CSc1ncccc1C(=O)Nc1ccc(F)c(F)c1F
    -1, -5.0, -2, -9, -0.9%, -0.5
> COc1ccc(CCNC(=O)CSc2nnc(Cc3cccn3C)n2C)cc1OC
    0, -2.8, 3, 2, 0.1%, -0.4
> CCOC(=O)C1CCN(C(=O)c2c(-c3c(F)cccc3Cl)noc2C)CC1
    -7, -4.7, -3, 10, -0.4%, 0.2
> CCOC(=O)c1ccccc1NC(=S)N1CCC(C)CC1
    -9, -5.8, 4, -18, 0.0%, -0.3
> Cn1cnnc1SCC(=O)NN(c1ccccc1)c1ccccc1
    -5, 1.0, -1, 10, -1.0%, -0.4
> CNC(=O)/C(C#N)=C/c1cc(C)n(-c2ccc(N3CCOCC3)cc2)c1C
    0, -3.0, 1, -10, 16%, 1.6
> CC1(C)Oc2ccc3ccc(=O)oc3c2/C(=C/Nc2ccccc2)C1=O
    8, -2.5, -1, 8, 0.5%, -1.4
> COc1ccc(-c2oc3cc(O)c(OC)c(O)c3c(=O)c2OC)cc1
    -19, -1.7, -21, nt, 0.2%, nt
> Cc1cccc(NC(=O)CSc2ccc3nnc(-c4cccnc4)n3n2)c1
    -24, -0.6, ?, -3, 1.6%, -0.6
> O=C(O)C1CCCCC1C(=O)NCCc1cccc(Cl)c1 (configuration not stated)
    12, -1.2, -8, -2, -3.4%, 0.8
> COc1ccc(N/C(N)=N/c2nc(C)cc(=O)[nH]2)cc1
    -8, -2.5, 8, 9, 0.2%, -0.3
> O=C1CC(c2ccc3c(c2)OCO3)Sc2nc3ccccc3n21 (configuration not stated)
    -10, -0.5, -3, -9, 2.2%[38.3 µM], 2.8
> OCCNc1nc(Nc2ccccc2)nc(Nc2ccccc2)n1
    -42, -6.7, 14, -10, 1.7%, 1.5
> CCOc1ccc(C2=C(C(C)=O)Sc3nnc(C)n3N2C(C)=O)cc1
    nt, nt, nt, -27, 5.6%, 4.5
> Cc1cc(NC(=O)CSc2nnc(Cn3c(=O)sc4ccccc43)n2-c2ccccc2C)no1
    -3, -4.9, 3, 12, -0.4%, 0.1
> CCOC(=O)c1ccc(S(=O)(=O)NC2CCCCCCC2)n1C
    -15, -1.1, 9, 4, 3.1%, 1.2
> Cc1ccc(-c2nc(CS(=O)CC(=O)NCCN3CCCCC3C)c(C)o2)cc1 (configuration not stated)
    -9, -6.0, -10, 25, 0.0%, 1.0
> COc1ccc(C)cc1NC(=O)CN(C)S(=O)(=O)c1ccc2c(c1)c(=O)n(C)c(=O)n2C
    -6, -2.0, 0, 4&1, 1.6%&0.1%, -0.4&-0.1
> COc1ccc(N(C)C(=O)c2nc(-c3cccc(F)c3)n3c2CCCCC3)c(OC)c1
    nt, nt, nt, 6, -0.8%, 0.1
> OC(COc1ccc(OCC(O)CN2CCCCCC2)cc1)CN1CCCCCC1 (configuration not stated)
    -11, -2.2, 0, -5, 3.3%, -0.5
> CCCCN(C(=O)c1cc(-c2ccc(F)cc2)nc2ccccc12)c1c(N)n(CCCC)c(=O)[nH]c1=O
    -13, -3.5, 0, -4, 2.2%, -0.2
> O=C(c1n[nH]c2ccccc12)N1CCN(S(=O)(=O)c2ccc(Cl)cc2)CC1
    4, 5.5, 0, 0, 0.9%, 0.3
> COc1cccc(-c2cc(C(=O)N/N=C/c3cccc(OC)c3OC)c3ccccc3n2)c1
    -4, -7.4, -28, -4, 1.5%, -0.2
> Cc1ncc([N+](=O)[O-])n1CCOC(=O)c1ccc(Br)cc1
    0, 1.0, 8, 16, 2.7%, 0.4
> Nc1ccc(C(=O)N/N=C/c2cccc(Oc3ccccc3)c2)cc1
    -8, -1.0, -6, 3, 3.4%, -0.3
> CNC[C@H]1Oc2ccc(NC(=O)Nc3ccc(OC)cc3)cc2C(=O)N([C@@H](C)CO)C[C@H]1C
    -2, -2.8, -11, -9, -0.5%, 1.2
> O=C(CNC(=O)OCc1ccccc1)NCC(=O)NC(Cc1c[nH]c2ccccc12)C(=O)O (configuration not stated)
    -7, -5.6, 2, nt, 0.9%, -0.3
> c1ccc(OCc2cc(-c3ccccc3)no2)cc1
    -6, 3.5, 34, -14, 3.9%, 0.6
> CC1CCCN(C(=O)CCNC(=O)Cn2cnc3ccccc3c2=O)C1 (configuration not stated)
    -2, -2.1, 1, 7, 2.6%, 0.1
> Nc1nc(SCC(=O)Nc2ccc3c(c2)CCC3)n[nH]1
    3, 1.2, 0, 1, -1.8%, 1.3
> CCCNC(=O)C1(C)CCCN(CC(=O)c2ccc3c(c2)OCCO3)C1 (configuration not stated)
    -6, -5.4, 3, nt, 0.5%, -0.9
> Oc1c(Br)cc(Br)cc1C=NCc1ccc(F)cc1
    -5, -5.6, -6, -9, 1.6%, 2.0
> CC1CCCN(S(=O)(=O)c2cc3c4c(c2)C(C)C(=O)N4CCC3)C1 (configuration not stated)
    2, -0.4, 0, 1, 0.8%, -0.6
> CCOC(=O)C1CCN(c2nc3c(S(=O)(=O)c4ccc(CC)cc4)nnn3c3ccc(Cl)cc23)CC1
    nt, nt, nt, 56, 2.3%, 0.5
> CCOC(=O)Nc1ccc2c(CN3C(=O)NC(CC)(CC)C3=O)cc(=O)oc2c1
    2, -1.7, -1, -29, -1.8%, 2.8
> CCOC(=O)c1sc(N)c(C#N)c1COC(=O)C1=COCCO1
    -2, 0.4, 1, 5, 2.4%, 1.1
> COc1ccc2nc(C)cc(N3CC(C)OC(C)C3)c2c1 (configuration not stated)
    5, -1.7, 0, 2, -3.9%, -1.0
> Cc1occc1-c1nnc(SCC(=O)N2CCOCC2)n1Cc1ccco1
    -17, -3.3, 0, -6, -0.5%, -0.2
> Cn1cc(/C=C2\SC(=S)N(NC(=O)c3ccccc3)C2=O)c2ccccc21
    -10, -2.6, -2, 4, 4.9%, 14
> COC(=O)CSc1ncccc1-c1nc2ccccc2[nH]1
    -4, -2.5, -1, -21, -1.2%[38.3 µM], -0.1
> CCOC(=O)C(NC(=O)CC)(Nc1ccccc1)C(F)(F)F (configuration not stated)
    0, 1.3, -1, -9, -0.8%, 1.4
> Cc1ccccc1Cn1c(C)nc2ccccc21
    -6, 12, 1, 9, 3.0%, -0.2
> O=C(/C=C/c1ccccc1[N+](=O)[O-])OCC(=O)N1CCCC1
    -2, -2.5, 7, 11, -0.7%, -0.2
> COC(=O)c1oc(-c2ccc(Cl)cc2)nc1C
    -4, -4.2, 10, 6, 2.0%, -0.8
> CCOC(=O)C1CCCN(C(=O)c2ccc3c(c2)N(Cc2ccccc2)C(=O)c2ccccc2S3=O)C1 (configuration not stated)
    0, -1.2, -1, ?, 3.4%&-0.5%, -0.5&-0.9
> COc1ccc(-c2cc(C(F)F)n3ncc(C(=O)Nc4cc(OC)ccc4OC)c3n2)cc1
    nt, nt, nt, 17, 1.5%, 0.1
> Nc1nc(Nc2ccc(Cl)cc2Cl)nc(C(F)(F)F)n1
    1, 2.5, 3, -9, 0.9%, 2.0
> CCN1C(=O)[C@H]2[C@@H](c3ccc(C)cc3)N[C@]3(CCCN(Cc4ccccc4)C3=O)[C@H]2C1=O
    2, -8.3, 2, 4, 1.9%, 0.1
> Cc1sc2ncnc(SCC(=O)Nc3cccc(S(N)(=O)=O)c3)c2c1C
    3, 1.6, -13, 4, 2.5%, 1.6
> O=C(CCSCc1ccccc1Cl)N1CCN(c2ccc(F)cc2)CC1
    nt, nt, nt, 50, -0.8%, 2.2
> CCOc1c(Br)cc(C2CC(=O)Nc3cc4c(cc32)OCO4)cc1OC (configuration not stated)
    nt, nt, nt, -2, 6.1%, 0.7
> C[C@@H]1CCCCO[C@@H](CN(C)CC2CC2)[C@@H](C)CN([C@H](C)CO)C(=O)c2cc(N(C)C)ccc2O1
    2, -7.8, 5, -9, -0.8%, -0.5
> COCCN(C(=O)COC(=O)c1nc(Cl)ccc1Cl)c1c(N)n(Cc2ccccc2)c(=O)[nH]c1=O
    -2, -2.9, 0, -5, -2.1%, 0.4
> CC1NC(=O)c2cc3ccccc3cc2-n2c1nc1ccc(F)cc1c2=O (configuration not stated)
    nt, -1.6, 7, nt, 3.3%, nt
> CCN(CC(=O)NCc1cccs1)C(=O)c1cccc(S(=O)(=O)NC)c1
    -14, 1.8, 0, 2, 0.7%, -0.3
> Cc1cc(-c2n[nH]c(=S)n2-c2ccc(C)c(C)c2)no1
    -13, -4.1, 0, -10, -2.7%, -0.2
> CC1(C)CN(c2ccsc2C(=O)O)C1=O
    -3, -6.3, 0, -9, 0.8%, 0.4
> Cc1cc(S(=O)(=O)N2CCN(c3c(C)cccc3C)CC2)ccc1F
    -14, -6.5, 3, 17, 4.1%, 1.5
> CCn1c(=O)c2c(nc(SCC(=O)N3CCCC(C)C3)n2C)n(C)c1=O (configuration not stated)
    7, -1.1, 3, -17, 3.5%, -0.5
> CC1CN(C(=S)Nc2cccc(F)c2)CC(C)O1 (configuration not stated)
    -14, -0.3, -9, -4, 1.8%, 0.0

Reprinted at random: 2 entries already listed
Every second line gives: D2 PAM, D2 agonist, Six1-Eya2 blk, TRPML1 inh, PINK1 expr mod, TRPML1 agonist
> CCN1C(=O)[C@H]2[C@@H](c3ccc(C)cc3)N[C@]3(CCCN(Cc4ccccc4)C3=O)[C@H]2C1=O
    2, -8.3, 2, 4, 1.9%, 0.1
> CCOC(=O)C(NC(=O)CC)(Nc1ccccc1)C(F)(F)F (configuration not stated)
    0, 1.3, -1, -9, -0.8%, 1.4

(cont.)
Every second line gives: D2 PAM, D2 agonist, Six1-Eya2 blk, TRPML1 inh, PINK1 expr mod, TRPML1 agonist
> Cc1cc(C)n(C(=O)C(C)N2C(=O)c3ccccc3C2=O)n1 (configuration not stated)
    -2, -2.3, 0, -15, 2.1%[38.3 µM], 3.5
> c1ccc(-c2ccn3nnnc3n2)cc1
    -7, -1.8, 10, 36, 5.0%, 0.1
> Nn1c(SCC(=O)Nc2ccc3c(c2)OCO3)nnc1-c1ccccc1
    0, 0.1, 0, -1, -4.3%[38.3 µM], 0.9
> Cc1ccc(NC(=O)C(=O)NCC(c2cccnc2)N2CCOCC2)cc1 (configuration not stated)
    nt, nt, nt, -7, 2.0%, 0.5

Outcome played no part in choosing rows, and some 1% of all compounds hit somewhere here.
